Screens from PubChem BioAssay.
TRPV1 PAM: potentiators of human vanilloid receptor 1 (TRPV1) | potentiation, % at 8.33 µM | TRPV1-expressing cells, Fluo-8 calcium influx, capsaicin EC20 potentiation; host cell line not named in the record; control for the full effect not named in the record | 320,000 tested, 0.02% active | Q8NER1; active means potentiation above 80%; inconclusive means 30% to 80%; inactive means below 30%; further: 0% is about no effect
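TRPV1-expressing cells were cultured overnight at 35.5C and loaded with Fluo-8 calcium dye for 40 to 90 min at room temperature. After a 10 s baseline, compound was added and calcium influx was read kinetically for 3 min (ex 480/em 520 nm).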
Menin MLL FP FL: displaces fluorescein MLL peptide from human menin | AID 1766 | Fluorescence polarization, fluorescein-MLL peptide displacement from menin | 290,000 tested, under 10 active | FP activity change, % at 61.4 µM; inconclusive = falling polarisation curve, or a change in total fluorescence; inactive = total fluorescence flat and polarisation flat or rising; no compound was filed as active; the % refers to the polarisation; negative = inhibition;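 further: % of control where 0% means no effect; inhibitors lower the polarisation; unlabelled MLL peptide was the positive control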
ClpP mod: qHTS Assay for Activators of ClpP; purified B. subtilis ClpP, FRET peptide cleavage, 20 min; Potency, µM (top dose mostly 57.5 µM), for the others: at the highest dose activity change, negative = active; 340,000 tested, 1.9% active; active = well fitted falling curve with a large enough effect; inconclusive = small, poorly fitted or top-dose-only effect; inactive = no such curve, though single readings can be large or run the other way; further: potency means the concentration at half of the fitted maximal effect; the source files actives as falling curves though it sought activators and does not explain the sign; nearly all actives have a fitted effect of over 65% in size; many hits overshoot -100%
Target sequence (P80244 whole entry, looked up): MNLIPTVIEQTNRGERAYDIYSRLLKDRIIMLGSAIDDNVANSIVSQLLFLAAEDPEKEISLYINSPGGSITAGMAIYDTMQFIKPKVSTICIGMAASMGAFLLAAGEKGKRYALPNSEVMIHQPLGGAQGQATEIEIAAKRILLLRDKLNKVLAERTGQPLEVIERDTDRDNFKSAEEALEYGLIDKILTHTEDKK
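ClpP 10 microg/mL final, pH 8 Tris/KCl buffer with BSA, glycerol, Tween-20; compound pinned in; FRET-FV substrate; RT 20 min; Ex320/Em430; ΔFRET vs ADEP 5.8 microM, DMSO, no enzyme.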
Sfp PPTase inh: blocks B. subtilis Sfp PPTase activity. Q9F4F7. Biochemical Sfp PPTase activity, qHTS. Potency, µM, inactives show max response, negative = inhibition, hits mostly inhibitors. 310,000 tested, 3.5% active. AID 1490; active means well fitted inhibition curve with a large enough effect; inconclusive means small, poorly fitted or top-dose-only effect, or another doubt; inactive means no such curve, though single readings can be large or run the other way;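 further: the enzyme is Sfp with the accession as filed and its product quenches rhodamine fluorescence; potency means the concentration at half of the fitted maximal effect; 0% = enzyme reaction without inhibitor and -100% = no enzyme wells; top concentration of the series not given in the record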
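With Hepes-Na pH 7.6 buffer containing 10 mM MgCl2, Sfp (15 nM) modified BHQ-2-YbbR (12.5 uM) using rhodamine-CoA (5 uM). Two reads 30 minutes apart at 525/598 nm yielded each well's rate.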
gsp antag: antagonists of gsp mutant (McCune-Albright syndrome); gsp-mutant cells, cAMP HTRF, 30 min; control for the full effect not named in the record; Potency, µM (doses to about 76.9 µM), for the others: top-dose activity change, negative = inhibition, most hits filed as inhibitors; 340,000 tested, 0.4% active; AID 624288; active = falling curve of any shape with a large fitted effect; inconclusive = falling curve, mostly with a smaller effect; inactive = flat or rising curve; cell line not stated here;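 further: intracellular cAMP measured with PDE inhibitor Ro 20-1724 present during compound exposure; potency means the concentration at half of the fitted maximal effect; on the % scale 0 is the no-effect control and ±100 the full control effect; nearly all actives have a fitted effect of over 65% in size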
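HTRF cAMP read-out (cAMP-d2 plus anti-cAMP antibody-K in lysis buffer, 30 min RT). Before lysis, cells are exposed to compounds with […] for 30 min at 37C in DPBS containing Ca/Mg, BSA and Tween 20.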
gsp agonist: gsp mutant agonism; AID 624287; Potency, µM (doses to about 76.9 µM), without a hit: at the highest dose activation (cAMP increase), hits mostly activators; gsp mutant cells, cAMP HTRF, 30 min; control for the full effect not named in the record; 340,000 tested, 0.13% active; active = well fitted activation curve with a large enough effect; inconclusive = small, poorly fitted or top-dose-only effect, or another doubt; inactive = no such curve, though single readings can be large or run the other way; cell line not stated here;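 further: phosphodiesterase inhibitor Ro 20-1724 added with compounds to block cAMP breakdown; potency means the concentration at half of the fitted maximal effect; nearly all actives have a fitted effect of over 60% in size; about a fifth of the inactives were tested at one dose only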
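Cells stably selected in G418 were plated at 2000/well, grown 16-24 hr, then given compounds in DMSO with the PDE inhibitor […] (300 uM solution added) for 30 min at 37C; cAMP was read by HTRF.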
TRPML1 inh: blocks the human TRPML1 channel. Q9GZU1. TRPML1-inducible cells, Ca2+ dye fluorescence, FDSS; stronger effect = lower value; inhibition of EC80 agonist-evoked calcium signal. activity change, negative = inhibition, % (test concentration not listed). 390,000 tested, 0.02% active. AID 624415; in the data active means activity change below about -50%; inconclusive means about -30% to -50%; inactive means above about -30%;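 further: stimulus is agonist 54-4 at its EC80 concentration; on the % scale 0 is the no-effect control and ±100 the full control effect; compound concentration not given in the record; the text of the record puts the active cut at -80%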
Target sequence (Q9GZU1 whole entry, looked up): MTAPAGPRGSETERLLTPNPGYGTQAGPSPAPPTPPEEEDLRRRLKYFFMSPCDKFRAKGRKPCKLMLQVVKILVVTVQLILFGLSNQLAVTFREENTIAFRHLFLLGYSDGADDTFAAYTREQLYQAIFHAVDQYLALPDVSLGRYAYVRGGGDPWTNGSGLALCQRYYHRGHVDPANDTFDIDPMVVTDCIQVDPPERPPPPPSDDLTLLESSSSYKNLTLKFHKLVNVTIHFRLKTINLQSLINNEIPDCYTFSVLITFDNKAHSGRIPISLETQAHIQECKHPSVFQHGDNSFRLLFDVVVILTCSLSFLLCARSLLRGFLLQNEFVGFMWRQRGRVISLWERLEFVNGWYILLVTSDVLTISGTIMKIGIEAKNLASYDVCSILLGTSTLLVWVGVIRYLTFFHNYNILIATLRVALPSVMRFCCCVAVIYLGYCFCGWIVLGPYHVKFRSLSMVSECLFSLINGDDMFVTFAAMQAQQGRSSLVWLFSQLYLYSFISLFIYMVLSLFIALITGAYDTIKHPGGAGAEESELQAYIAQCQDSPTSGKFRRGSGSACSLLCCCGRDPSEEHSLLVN
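Tet-induced TRPML1-DL cells loaded with Ca8 no-wash calcium dye were read kinetically on FDSS. Compound addition was followed by EC80 agonist 54-4 (4 uM final); inhibition was read over 110 s.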
An asterisk follows results filed as active; ? = inconclusive; . = no result given; [ ] = another dose, or the depositor's remark.

SMILES	TRPV1 PAM	Menin MLL FP FL	ClpP mod	Sfp PPTase inh	gsp antag	gsp agonist	TRPML1 inh
COc1cc(C(=O)COC(=O)c2cc([N+](=O)[O-])ccc2N2CCOCC2)ccc1OC(F)F	2.2	.	-13.1%	.	8.2%	-75.4%[inhibitor]	27.7
CC(C)C(=O)Nc1ccccc1N1CCN(C(=O)c2ccccc2)CC1	2.1	0.3	?	12.6%	-13.4%	-46.3%	4.2
CCOC(=O)c1c(NC(=O)Cn2nc(C(=O)O)c3ccccc3c2=O)sc2c1CCC(C)C2 (stereo not given)	0.6	5.4	.	?	-1.3%	-3.9%[15.4 µM]	-0.5
CC1(CCc2ccc(O)cc2)NC(=O)NC1=O (stereo not given)	8.1	1.3	-2.4%	-2.3%	-0.4%	-25.3%	-7.4
Cc1ccc(NC(=O)CN2CCC(NC(=O)Cc3ccccc3)CC2)c(C)c1	-20.1	-2.4	-1.0%	29.7%	6.4%	3.8%	19.3
Cc1ccc(-n2c(SCC(N)=O)nnc2-c2cccnc2)c(C)c1	-6.7	-6.5	0.5%	0.8%	3.1%	21.5%	29.4
O=C(c1ccc(F)cc1)C1CCN(Cc2cn[nH]c2-c2ccc(F)cc2)CC1	.	0.4	.	-9.2%	9.7%	2.0%	-1.7
COc1cccc(-n2c(Cc3cc(=O)[nH]c(=O)[nH]3)nnc2SCC(=O)N2CCCCC2)c1	7.1	-1.7	0.7%	29.1%	4.9%	-60.0%[inhibitor]	-1.9
COc1ccc(C[C@H]2CN3C(=NC[C@H]3C)N2CCNC(=O)CCC2CCCCC2)cc1	3.6	-3.9	-0.7%	5.2%	-1.0%	-25.1%	8.6
O=c1ccc(Oc2nc(N3CCOCC3)nc(N3CCOCC3)n2)nn1-c1ccccc1	-12.4	3.8	-1.6%	11.3%	9.9%	-25.6%	-10.8
O=S(=O)(c1ccccc1)c1nc(-c2ccco2)oc1NCc1cccnc1	5.2	8.5	-10.1%	-24.6%	-8.8%	-2.3%	6.8
CCCCc1nn(-c2cc(Cl)ccc2OC)c2c1C(=O)CCC2	9.7	0.8	0.4%	5.6%	-17.3%	-70.4%[inhibitor]	-9.3
COC(=O)c1ccc(NCCc2csc(-c3ccc(C)cc3)n2)c([N+](=O)[O-])c1	18.9	2.9	1.1%	16.7%	1.7%	?	-2.9
Cc1ccccc1-n1c(C)n[nH]c1=S	3.7	0.2	-0.3%	79.4µM*	1.6%	4.5%	-0.3
CC(C)C(NC(=O)Nc1ccccc1)C(=O)Nc1cccc(S(=O)(=O)N(C)C)c1 (stereo not given)	-12.3	-1.3	.	4.2%	-23.5%	-15.5%[15.4 µM]	3.8

By substructure: the compounds so far containing an aryl methoxy group
SMILES	TRPV1 PAM	Menin MLL FP FL	ClpP mod	Sfp PPTase inh	gsp antag	gsp agonist	TRPML1 inh
COc1cc(C(=O)COC(=O)c2cc([N+](=O)[O-])ccc2N2CCOCC2)ccc1OC(F)F	2.2	.	-13.1%	.	8.2%	-75.4%[inhibitor]	27.7
COc1cccc(-n2c(Cc3cc(=O)[nH]c(=O)[nH]3)nnc2SCC(=O)N2CCCCC2)c1	7.1	-1.7	0.7%	29.1%	4.9%	-60.0%[inhibitor]	-1.9
COc1ccc(C[C@H]2CN3C(=NC[C@H]3C)N2CCNC(=O)CCC2CCCCC2)cc1	3.6	-3.9	-0.7%	5.2%	-1.0%	-25.1%	8.6
CCCCc1nn(-c2cc(Cl)ccc2OC)c2c1C(=O)CCC2	9.7	0.8	0.4%	5.6%	-17.3%	-70.4%[inhibitor]	-9.3

Next part
SMILES	TRPV1 PAM	Menin MLL FP FL	ClpP mod	Sfp PPTase inh	gsp antag	gsp agonist	TRPML1 inh
O=C1CC2CS(=O)(=O)CC2N1c1ccc(Oc2ccccc2)cc1 (stereo not given)	-2.5	0.2	1.2%	4.8%	2.4%	-44.8%[inhibitor]	-1.1
COc1ccc(Oc2cccc(Cl)c2CNC(=O)CCC(=O)O)cc1	-7.8	1.0	0.4%	16.5%	-12.1%	-21.5%[15.4 µM]	-14.8
NC(=O)Cn1cc(C(=O)COc2ccccc2)c2ccccc21	-9.5	16.2	.	12.1%	.	.	.
O=S(=O)(NCC1CCCO1)c1ccccc1F (stereo not given)	28.2	0.2	.	-12.7%	12.9%	8.4%[15.4 µM]	10.4
CCOC(=O)C1=C(N)Oc2c(oc(CO)cc2=O)C1c1ccccc1 (stereo not given)	9.9	10.9	1.1%	10.4%	1.1%	-17.5%[15.4 µM]	-1.0
CN(C)C=NC(=O)c1cc(C(=O)c2ccccc2Cl)c[nH]1	-20.6	4.1	.	-18.0%	-22.0%	6.3%[15.4 µM]	-9.4
CCOC(=O)C1=C(C)N=C2SC(C)C(=O)N2C1c1ccc(OCC)c(OCC)c1 (stereo not given)	-6.0	-0.5	0.6%	15.8%	-20.2%	-20.6%	-5.3
CN(C)/C=C(\C#N)C(=O)Nc1ccc(F)cc1	-3.3	4.4	-2.1%	17.7%	-6.0%	-14.5%	69.5
CCOc1ccccc1NC(=O)C1C2CCC(O2)C1C(=O)O (stereo not given)	7.6	-0.3	.	-1.5%	7.8%	-27.0%	-12.2
Cc1ccc(CN2CCN(Cc3ccc(C)s3)CC2CCO)cc1 (stereo not given)	-5.3	-1.1	.	15.6%	9.6%	-16.6%[15.4 µM]	-14.8
O=C1CC(c2ccc(Cl)cc2)Oc2ccc(Cl)cc21 (stereo not given)	.	.	.	.	-3.4%	28.5%	0.0
O=C(/C=C/c1ccccc1[N+](=O)[O-])NCCCN1CCCC1=O	?	.	-1.0%	1.9%	7.5%	-12.6%	5.0
O=C(CCCc1ccccc1)NC1CC1	-5.2	2.3	0.5%	-11.1%	11.4%	-6.2%	3.6
C=CC[C@@H](CC(=O)N[C@H](CO)Cc1ccccc1)C(=O)N[C@H](COC(=O)[C@@H](CC=C)Cc1ccc(F)cc1)Cc1c[nH]c2ccccc12	.	.	-2.8%	.	-21.5%	3.3%	-3.7
Cc1cccc(Nc2nnc(SCC(=O)c3ccc(Br)s3)s2)c1C	-2.8	6.0	0.6%	5.8%	3.9%	3.7%[15.4 µM]	10.1
O=C(Nc1ccccc1N1CCOCC1)c1cccc2ccccc12	.	.	-5.1%	.	.	-14.8%	-2.9
CCOc1ccc(C(=O)C2CCN(C(=O)c3ccccc3C(=O)O)CC2)cc1	-8.5	-6.1	-1.6%	10.2%	4.0%	17.1%	10.1
Cc1cc(C)n(C(=O)COc2ccc(Cl)cc2Cl)n1	-1.1	2.6	1.1%	24.4%	-9.6%	-28.9%	14.5
Cc1cc(N2C(=O)C(O)=C(C(=O)c3ccc(C)o3)C2c2cccc(Oc3ccccc3)c2)no1 (stereo not given)	-8.2	-0.2	.	-26.6%	-4.8%	21.3%[15.4 µM]	39.3
CCCCn1c(N)c(N(CC(C)C)C(=O)Cn2c(=O)cnc3ccccc32)c(=O)[nH]c1=O	16.5	.	.	.	-0.7%	-11.7%[15.4 µM]	8.3
Cc1ccc(NC(=S)NCCCN2CCOCC2)cc1C	.	-2.1	-1.2%	14.9%	10.2%	?	-2.8
COC(=O)c1ccc(NC(=S)NCCc2cccc(C)c2)cc1	15.5	-3.5	-0.4%	-2.2%	-17.7%	18.2%	5.9
CCN1CCN(S(=O)(=O)c2ccc(S(=O)(=O)NCC3CCCO3)cc2)CC1 (stereo not given)	0.5	0.7	0.0%	7.6%	6.1%	-24.3%	-2.5
Cc1ccc(NC(=O)C2CC(=O)NC(Nc3cccc(C)c3)=N2)cc1 (stereo not given)	-1.6	-0.2	0.6%	7.2%	4.3%	0.0%	13.9
Cc1ccccc1NC(=O)c1ccc(C)c(S(=O)(=O)Nc2ccccn2)c1	5.8	-0.9	?	9.7%	6.2%	-38.1%[inhibitor]	-6.0
COc1ccc2[nH]c(=O)c(CN(Cc3nnnn3Cc3ccc(F)cc3)CC3CCCO3)cc2c1 (stereo not given)	-4.8	1.5	?	15.2%	-18.5%	-49.9%[inhibitor]	0.5
C=C(C)c1cccc(C(C)(C)NC(=O)N2CCN(C/C=C/c3ccccc3)CC2)c1	23.2	6.9	1.3%	-7.4%	-3.4%	-6.7%	0.4
COc1ccc(-c2c(C)[nH]n3c(=O)c(Cc4ccccc4)c(C)nc23)cc1	-24.0	5.7	-18.3%	-11.7%	-32.4%	10.2%	5.8
CCOc1ccc(-c2nnc(-c3ccncc3)o2)cc1	8.3	0.6	?	8.5%	-6.9%	-31.6%[inhibitor]	-19.8
O=C1CN(C(=O)NCC(=O)N[C@H](C(=O)O)c2ccccc2)c2ccccc2N1	-5.5	1.8	-5.2%	-1.1%	7.8%	-38.7%[inhibitor]	20.9
COC(=O)C1CCN(CC(=O)NC(=O)NC2CCCCC2)CC1	7.8	-0.8	.	8.5%	3.1%	-7.8%	11.5
CC(C)n1cc(CN2CCN(C)C(CCO)C2)c2ccccc21 (stereo not given)	-0.2	0.7	-6.4%	13.0%	9.8%	-18.5%	.
CCCCOC(=O)CCCN1C(=O)/C(=C2\SC(=S)N(CCCC(=O)OCCCC)C2=O)SC1=S	-10.3	-0.1	0.2%	11.0%	3.4%	-17.6%	-13.8
CCCSc1nnc(-c2ccccc2N)c(=O)[nH]1	-5.5	3.1	-0.6%	12.2%	-10.1%	10.8%	6.8
O=C(NCc1ccc(F)cc1)C(c1cccnc1)N(C(=O)c1csnn1)c1ccccc1 (stereo not given)	0.4	-6.1	.	12.5%	-13.3%	?	-4.3
CC(C)(C)OC(=O)N1CCC(c2c(C(=O)O)cnn2-c2ccc(Cl)cc2)CC1	4.3	7.5	-4.6%	18.1%	-27.9%	-14.7%	-14.2
CCCCCC(=O)Nc1cccc(C2=NOC3(C2)C[C@@H](C(N)=O)N(C(=O)c2cc([N+](=O)[O-])cc([N+](=O)[O-])c2C)C3)c1 (stereo not given in full)	?	-0.7	-1.1%	1.0%	5.3%	.	-4.6
CCN(CC)c1ccc(C=Nc2cccc(S(=O)(=O)N3CCOCC3)c2)c(O)c1	.	.	1.0%	.	7.6%	-20.4%	-18.9
